Source: PubChem
PMP22 txn prim: modulators of PMP22 gene transcription in S16 Schwann cells; AID 1508649; Potency, µM (doses to about 57.5 µM), without a hit: at the highest dose activity change, negative = inhibition, most hits filed as inhibitors; 43,000 tested, 2% active; S16 Pmp22-F2sN Schwann cells (luciferase reporters placed in the Pmp22 gene), FLuc/NLuc coincidence luminescence, 24 h; active = clear falling dose curves in both reporters; inconclusive = both reporters move, but less clearly or upward; inactive = either reporter flat; the % is the NLuc reporter signal; also: % is scaled to controls: 0 for no effect and ±100 for the full control effect; some results filed as inactive show a strong effect at the top dose
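Rat S16 Pmp22-F2sN cells, 500-1,000/well in phenol red-free DMEM + 10% FBS, compound-treated 24 h (37C, 5% CO2). Luminescence: FLuc read, Stop&Glo added, NLuc read.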
HTT promoter inh: inhibitors of huntingtin promoter activity. Potency, µM (titrated, usually from 57.5 µM), for the others: top-dose activity change, negative = inhibition, most hits filed as inhibitors. HEK293 HTT promoter firefly luciferase reporter (activity 0% = vehicle and -100% = no light), 24 h. 48,000 tested, 0.93% active; active = well fitted inhibition curve with a large enough effect; inconclusive = small, poorly fitted or top-dose-only effect; inactive = no such curve, though single readings can be large or run the other way; also: nearly all actives have a fitted effect of over 50% in size
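Firefly luciferase readout (Dual-Glo, 10 min RT) after 24 h, 37 °C compound exposure (final up to 57.5 uM) of HEK293 reporter cells cultured 24 h beforehand; PTC124 at 50 uM final as control inhibitor; activity scaled vehicle 0%, zero RLU -100%.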
Numbers without * were called inactive; ? = inconclusive; · = no result given; [ ] = dose if it differs, or a comment. Potency is read from the fitted curve at half-maximal effect.

SMILES | PMP22 txn prim | HTT promoter inh
CCOc1ccc(CNC(=O)C2CCCN(c3nn4cc(-c5ccc(OC)cc5)nc4s3)C2)cc1 (stereo unspecified) | ? | 1%
O=C(CSc1nc(=O)[nH]c2c1CCC2)NCc1ccc(F)cc1 | -6% | -13%
Cc1ccc2c(c1C)NC(=O)CC2c1ccc(Cl)cc1Cl (stereo unspecified) | -29% | ?
Cc1ccc(-n2ncc3c(N(CC(C)C)CC(C)C)ncnc32)c(C)c1 | 7% | ?
CSc1ncc(C(=O)NCc2ccccc2F)c(-c2ccccc2)n1 | 0% | 2%
Cc1ccc(NS(=O)(=O)c2ccc3c(c2)NC(=O)CCS3)c(Br)c1 | 6% | ?
FC(F)(F)c1cccc(-c2nnn3c2nc(NC2CCCCC2)c2ccccc23)c1 | ? | -16%
CCc1ccc(CNC(=O)c2nn(-c3ccc(C)cc3)c(=O)c3c2c2ccccc2n3C)cc1 | 2.8µM* | -12%
Cc1cccc(CNC(=O)CN2C(=O)CSc3c2c(C)nn3-c2ccccc2)c1 | 10% | -10%
CCOC(=O)C1=C(CN(C)Cc2ccccc2)NC(=O)NC1c1ccc(OC)cc1 (stereo unspecified) | ? | ?
COc1ccc2c(c1)c(=O)c(S(=O)(=O)c1ccc(F)cc1)cn2CC(=O)Nc1ccc(C)cc1C | 0% | -10%
Cc1cccc(OCC(=O)Nc2ccc3nc(SCc4ccccc4)sc3c2)c1 | 16µM* | -5%
COc1cccc(CNc2ncnc3onc(C)c23)c1 | ? | ?
CCc1cccc(C)c1NC(=O)CN1CCCN(Cc2ccccc2Cl)S1(=O)=O | -13% | -24%
CCOC(=O)Cc1ccc(NC(=O)Nc2nnc(N3CCCCC3C)s2)cc1 (stereo unspecified) | -5% | ?
Cc1cc2oc(=O)c(CC(=O)NCCc3ccccc3)c(C)c2c2occ(C(C)(C)C)c12 | ? | 1%
COc1cc(OC)cc(C(=O)Oc2c(Sc3ccccc3)c(C)nn2C(C)(C)C)c1 | -4% | ?
CC(=O)c1cc(-c2ccc(F)cc2)n(CCC(=O)Nc2nc3c(C)cccc3s2)c1C | ? | -8%
COc1ccc(NC(=O)Cn2c(=O)n(-c3ccc(Cl)cc3)c(=O)c3c(C)c(C(=O)N(C)C)sc32)cc1Cl | -14% | 2%
CCn1c(=O)c2cc(C(=O)Nc3cc(C)c(Cl)cc3OC)sc2c2ccccc21 | -22% | 1%

4 structures from above, sorted by SMILES length, falling:
SMILES | PMP22 txn prim | HTT promoter inh
COc1ccc(NC(=O)Cn2c(=O)n(-c3ccc(Cl)cc3)c(=O)c3c(C)c(C(=O)N(C)C)sc32)cc1Cl | -14% | 2%
CCc1ccc(CNC(=O)c2nn(-c3ccc(C)cc3)c(=O)c3c2c2ccccc2n3C)cc1 | 2.8µM* | -12%
Cc1cccc(CNC(=O)CN2C(=O)CSc3c2c(C)nn3-c2ccccc2)c1 | 10% | -10%
O=C(CSc1nc(=O)[nH]c2c1CCC2)NCc1ccc(F)cc1 | -6% | -13%

Single records, from the list above. Screens in order: PMP22 txn prim	HTT promoter inh
Cc1ccc2c(c1C)NC(=O)CC2c1ccc(Cl)cc1Cl (stereo unspecified) is entered as -29%	?
Cc1ccc(NS(=O)(=O)c2ccc3c(c2)NC(=O)CCS3)c(Br)c1 is entered as 6%	?
Cc1ccc(-n2ncc3c(N(CC(C)C)CC(C)C)ncnc32)c(C)c1 is entered as 7%	?
CCOC(=O)Cc1ccc(NC(=O)Nc2nnc(N3CCCCC3C)s2)cc1 (stereo unspecified) is entered as -5%	?

Continued:
SMILES | PMP22 txn prim | HTT promoter inh
CC(=O)NCC(=O)N1[C@H]2CC[C@H]1c1cc(Nc3ncc(C(F)(F)F)c(NC4CCC4)n3)ccc12 | · | ?
Cc1ccc(Cl)cc1NC(=O)N1CCC(CN2CCCCCC2)CC1 | ? | -14%
Cc1c(Cl)cccc1NC(=O)C1CCCN(C(=O)c2cnn(-c3ccccc3)c2-n2cccc2)C1 (stereo unspecified) | ? | ?
CCc1cccc(NC(=O)CSc2nccn2C)c1 | 5% | 4%
COc1ccc(NC(=O)C2=CC(c3ccco3)=NS(=O)(=O)N2C)cc1 | 1% | -21%
CCOc1ccccc1N(CC)C(=O)c1cc2c(=O)n(CC)c3ccccc3c2s1 | ? | ?
Cc1cccc(N2CCN(C(=O)CN3C(=O)COc4ccc(S(=O)(=O)N5CCC(C)CC5)cc43)CC2)c1C | -19% | -15%
Cc1ccc2c(c1)c1c(c(=O)n(Cc3ccccc3)c(=O)n1CC(=O)NCc1ccccc1Cl)n2C | -1% | -7%
Cc1nn(-c2ccccc2)c(OC(=O)C(C)(C)C)c1Sc1ccccc1 | -8% | -3%
COc1ccc(OC)c(CNS(=O)(=O)c2ccc3c(c2)oc(=O)n3C)c1 | -18% | -18%
CCOc1cc(C2Nc3ccccc3-c3nnc(SCc4ccccc4)nc3O2)ccc1OC (stereo unspecified) | 1% | -1%
COc1ccc(C)cc1NC(=O)c1ccc2c(c1)nnn2C1CCCC1 | 4% | -36%
O=C(/C=C/c1ccccc1)OCc1ccccc1 | · | 18%
COc1ccc(C(=O)NCC(c2ccco2)S(=O)(=O)c2ccccc2)cc1 (stereo unspecified) | 2% | 2%
CCn1c(=O)c2cc(C(=O)N3CCN(c4cccc(Cl)c4)CC3)sc2c2ccccc21 | ? | -5%
COC(=O)c1ccc(NC(=O)CC2C(=O)N(c3ccccc3)C(=O)N2Cc2cccs2)cc1 (stereo unspecified) | 16% | -28%
CCOC(=O)C1CCN(S(=O)(=O)c2ccc3c(c2)N(C)C(=O)CC(=O)N3C)CC1 | -2% | -21%
COc1ccc(C2c3cccn3CCN2S(=O)(=O)c2ccc([N+](=O)[O-])cc2)cc1 (stereo unspecified) | ? | 13%
Cc1ccc(C)c(CNC(=O)C2CCN(c3nc4ccccc4nc3C(F)(F)F)CC2)c1 | -4% | 23%
COc1cccc(N2CCN(C(=O)CN3CCSc4ccccc43)CC2)c1 | ? | ?

Pulled by structure from above (2):
SMILES | PMP22 txn prim | HTT promoter inh
CC(=O)c1cc(-c2ccc(F)cc2)n(CCC(=O)Nc2nc3c(C)cccc3s2)c1C | ? | -8%
COc1ccc(C2c3cccn3CCN2S(=O)(=O)c2ccc([N+](=O)[O-])cc2)cc1 (stereo unspecified) | ? | 13%

The results go on:
SMILES | PMP22 txn prim | HTT promoter inh
Cc1cccc(CSc2nc3c([nH]c4ccccc43)c(=O)n2C)c1 | 0% | -6%
CCn1c(SCc2cccc(Br)c2)nnc1-c1nonc1NC(C)=O | -24% | ?
CCOC(=O)c1cccc(NC(=O)c2cc3c(=O)n(C)c4ccccc4c3n2C)c1 | -15% | 1%
Cc1cccc(NC(=O)c2cc(S(=O)(=O)N3CCCCC3)c[nH]2)c1C | ? | -10%
Cc1ccc(NC(=O)CN(CCc2ccccc2)S(=O)(=O)c2ccccc2)c(C)c1 | ? | ?
COc1cc(-c2nc(Cn3nnc(C(=O)Nc4cc(C)cc(C)c4)c3C)c(C)o2)cc(OC)c1OC | ? | ?
CCN(Cc1ccccc1)C(=O)c1cc2c(=O)[nH]c3ccc(C)cc3c2s1 | -15% | -2%
CCOc1ccc(CNC(=O)c2cnc3sc(N4CCOCC4)nn3c2=O)cc1 | -1% | -5%
COc1ccc(NCc2cc3ccc(OC)cc3n(CC(=O)Nc3cccc(OC)c3)c2=O)cc1 | -12% | ?
COc1ccc(C(=O)Nc2ccccc2-c2nc3ccccc3s2)c(OC)c1 | ? | -25%
Cc1cc(F)ccc1NC(=O)CCn1nc(C)c(S(=O)(=O)N2CCCCC2)c1C | 6% | -32%
Cc1ccccc1OCc1ccc(-c2nc(C#N)c(N3CCCCC3)o2)o1 | -8% | ?
CC(C)c1ccc(OCC(=O)Nc2c(Cl)ccc3nsnc23)cc1 | -18% | -29%
CCc1ccc(-n2c(=O)c3cccnc3n2CC(=O)NCc2ccc(F)cc2)cc1 | 8% | -21%
Cc1ccc(CNC(=O)CCCn2c(=O)c3ccccc3n(Cc3ccc(Cl)cc3)c2=O)cc1 | ? | -4%
COc1cc(C2CC(=O)N(Cc3cccc(F)c3)c3ccccc3S2)cc(OC)c1OC (stereo unspecified) | ? | 20µM*
CCOc1ccc(CNC(=O)C2CCN(S(=O)(=O)c3cn(C)cn3)CC2)cc1 | ? | 7%
COc1cccc(CNC(=O)c2cccc(-n3c(C)nc4cccnc43)c2)c1OC | ? | ?
Cn1cnc2c(F)c(Nc3ccc(Br)cc3Cl)c(C(=O)NOCCO)cc21 | · | 2%
CCCN(C(=O)CCc1nc(-c2ccc(C)cc2)no1)c1ccc(OCC)cc1 | -3% | ?
COc1ccc(S(=O)(=O)NCCc2sc(-c3cccc(F)c3)nc2C)cc1 | ? | -28%
COC(=O)CCCCC(CCSS/C(CCO)=C(\C)N(C=O)Cc1cnc(C)nc1N)SC(C)=O (stereo unspecified) | · | -4%
COc1ccc(OC)c(NC(=O)Cn2cnc3sc(C)c(S(=O)(=O)N4CCN(c5ccccc5OC)CC4)c3c2=O)c1 | 15% | -9%
Oc1ccccc1-c1nc2cnccn2c1Nc1ccc(Cl)cc1 | ? | -26%
COc1cc2ccccc2cc1C(=O)N1CCN(c2nc3c(F)cccc3s2)CC1 | ? | -8%
CCc1cccc(NC(=O)c2cc(-c3ccccc3)n[nH]2)c1 | ? | 11%
CCN(CC)C(=O)c1sc(NC(=O)C(C)Sc2nc(-c3ccccc3)cc(C(F)(F)F)n2)c(C(=O)OC)c1C (stereo unspecified) | ? | -21%
Cc1ccc2oc(C(=O)Nc3cccc(-c4nc5ccccc5s4)c3)c(C)c2c1 | -27% | 4%
CC(C)(C)OC(=O)N1CCC(c2c(C(=O)N3CCCCC3)cnn2-c2ccc(F)cc2F)CC1 | -12% | -14%
Nc1ccc2nc(-c3ccc(O)cc3)sc2c1 | ? | 86%[activator]
N#Cc1nc(-c2ccc(COc3ccccc3)o2)oc1N1CCCCC1 | -24% | -31%
CC(C)Oc1ccc(C(=O)N2CCCCC2CCN2CCCCC2)cc1 (stereo unspecified) | -19% | 0%
COc1ccc(S(=O)(=O)N2CCC(n3c(C(F)(F)F)nc4cccnc43)CC2)cc1OC | ? | -36%
O=S(=O)(c1cccc(F)c1)N1CCC(Oc2ccc(-n3cnnn3)cc2)CC1 | ? | ?
COc1ccc(-c2nc(CN3CCC(C(=O)NCCN(CC(C)C)CC(C)C)CC3)c(C)o2)cc1OC | ? | -19%
CCc1ccc(NC(=O)CSc2nc(C)c(C(=O)Nc3ccccc3)c(-c3ccc(OC)c(OC)c3)c2C#N)cc1 | 22% | -17%
Cc1ccc(Cl)cc1N1CCN(C(=O)c2cc(S(=O)(=O)N3CCCCCC3)cn2C)CC1 | ? | ?
COc1cc(C2CC(=O)Nc3cc4c(cc32)OCCO4)cc(OC)c1O (stereo unspecified) | ? | -26%
CCCCn1c(NCc2cc(Cl)ccc2O)nc2ccccc21 | ? | ?
COc1ccc(-n2c(SCC(=O)NC3CCCCC3)nc3c([nH]c4ccccc43)c2=O)cc1 | ? | 6%
Cc1ccc(OCC(=O)Nc2ccc(S(=O)(=O)Nc3cc(C)nc(C)n3)cc2)c(Br)c1 | 3% | -21%
Cc1ccc(C)c(C(=O)CSc2nc(-c3ccccc3)nc3c2CCCC3)c1 | -2% | -5%
CC(=O)c1cccc(NC(=O)C2CCN(S(=O)(=O)c3ccc4c(c3)CCCN4C(C)=O)CC2)c1 | 5% | -8%
O=C(CCCN1C(=O)C(c2ccccc2)Oc2cccnc21)Nc1ccccc1C(F)(F)F (stereo unspecified) | ? | -10%
Cc1ccc(C)c(NC(=O)c2oc(=O)c3ccccc3c2-c2ccccc2)c1 | ? | ?
Cc1cccc(CN2CCC(CNC(=O)Cn3ncc4c([nH]c5ccc(C)cc54)c3=O)CC2)c1 | ? | 3%
O=S(=O)(c1ccccc1)c1nnn2c1nc(NC1CCCCC1)c1sccc12 | -14% | -7%
COC(=O)c1sccc1S(=O)(=O)N(CC(=O)NCc1ccccc1)c1ccc(C)c(C)c1 | -96% | -3%
CCc1ccc(-n2c(=O)c3sc4ccccc4c3n(CC(=O)NC3CCCC3)c2=O)cc1 | ? | -5%
Cc1[nH]c2ccccc2c1C(=O)C(=O)NC1CC(=O)N(c2ccccc2)C1 (stereo unspecified) | 16% | -23%
O=C(NC1(C(F)(F)F)C(=O)Nc2c1c(=O)[nH]c(=O)n2-c1ccccc1)c1ccccc1 (stereo unspecified) | 2% | -13%
O=C(O)c1ccccc1-c1ccc(C(F)(F)F)cc1 | · | 9%
COc1ccc(-n2nc3c(c2NC(=O)C(=O)NCc2ccccc2)CSC3)cc1 | 32% | -26%
CCOc1ccc(-n2nc3ccc(NC(=O)c4ccc(OC)c(Cl)c4)cc3n2)cc1 | 6% | -15%
COc1ccccc1NC(=O)CSc1nnc(NC(=O)Nc2ccc(C)cc2)s1 | ? | ?
COC(=O)c1c(NC(=O)c2ccc(C(C)(C)C)cc2)sc2c1CCC(C)C2 (stereo unspecified) | -10% | -17%
CCOc1ccccc1CNCc1c(C(=O)O)c(C)n(Cc2ccc(C)cc2)c1C | -1% | -8%
Cc1cccc(CNC(=O)c2cc3cc(S(=O)(=O)N4CCCCC4)ccc3n2C)c1 | ? | ?
Cc1cccc(N2CCN(C(=O)CCc3c(C)nc4c(c3C)c(=O)n(C)c(=O)n4C)CC2)c1C | ? | -8%
CCc1ccc(NC(=O)CNC(=O)Cn2c(C)cc3ccccc3c2=O)cc1 | -19% | -19%
